Screening results as filed in PubChem.
TRPV1 potentiator – potentiators of human vanilloid receptor 1 (TRPV1) | TRPV1-expressing cells, Fluo-8 calcium influx, capsaicin EC20 potentiation; host cell line not named in the record; control for the full effect not named in the record | potentiation, % at 8.33 µM | 0.02% of 320,000 active; active means potentiation above 80%; inconclusive means 30% to 80%; inactive means below 30%; note: 0% is about no effect
Target sequence (Q8NER1 whole entry, looked up): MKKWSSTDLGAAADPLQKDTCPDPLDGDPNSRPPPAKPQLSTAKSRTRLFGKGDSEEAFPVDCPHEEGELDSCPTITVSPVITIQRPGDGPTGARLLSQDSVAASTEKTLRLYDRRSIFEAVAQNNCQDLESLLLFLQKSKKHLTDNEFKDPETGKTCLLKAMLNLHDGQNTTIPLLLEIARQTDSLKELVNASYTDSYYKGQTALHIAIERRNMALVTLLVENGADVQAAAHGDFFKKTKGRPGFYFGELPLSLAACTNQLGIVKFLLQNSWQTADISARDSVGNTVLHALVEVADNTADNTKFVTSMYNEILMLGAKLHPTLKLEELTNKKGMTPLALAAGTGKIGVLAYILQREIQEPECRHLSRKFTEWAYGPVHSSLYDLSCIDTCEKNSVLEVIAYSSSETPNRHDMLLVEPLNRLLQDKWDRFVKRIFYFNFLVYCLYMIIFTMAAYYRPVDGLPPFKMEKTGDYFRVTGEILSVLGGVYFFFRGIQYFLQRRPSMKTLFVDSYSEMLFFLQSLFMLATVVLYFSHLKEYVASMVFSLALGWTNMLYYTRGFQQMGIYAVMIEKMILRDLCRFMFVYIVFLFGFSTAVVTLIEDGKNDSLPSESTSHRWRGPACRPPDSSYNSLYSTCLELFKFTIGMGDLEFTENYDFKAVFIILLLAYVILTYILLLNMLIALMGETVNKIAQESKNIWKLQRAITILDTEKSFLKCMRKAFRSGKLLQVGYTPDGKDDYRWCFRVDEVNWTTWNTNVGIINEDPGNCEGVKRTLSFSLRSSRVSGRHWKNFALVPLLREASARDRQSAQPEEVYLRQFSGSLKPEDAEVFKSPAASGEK
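TRPV1-expressing cells were cultured overnight at 35.5C and loaded with Fluo-8 calcium dye for 40 to 90 min at room temperature. After a 10 s baseline, compound was added and calcium influx was read kinetically for 3 min (ex 480/em 520 nm).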
Menin MLL FP FL – menin-MLL binding inhibition, fluorescein peptide | Fluorescence polarization, fluorescein-MLL peptide displacement from menin | FP activity change, % at 61.4 µM | 290,000 tested, under 10 active | AID 1766; inconclusive = falling polarisation curve, or a change in total fluorescence; inactive = total fluorescence flat and polarisation flat or rising; no compound was filed as active; the % refers to the polarisation; negative = inhibition;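 note: % of control where 0% means no effect; inhibitors lower the polarisation; unlabelled MLL peptide was the positive control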
CtBP-E1A blk – inhibitors of CtBP/E1A interaction | 0.49% of 340,000 active | AlphaScreen GST-E1A/His-CtBP binding, 1536-well; active compounds read low; control for the full effect not named in the record | activity change, % (test concentration not listed) | AID 651724; in the data active means activity change below about -65%; inconclusive means about -30% to -65%; inactive means above about -30%; note: % is set by controls: 0 for no effect and ±100 for the full control effect
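Protein mix (5X: 125 nM each GST-E1A, His-CtBP) was incubated with pinned compound 2 h at 37 deg C in dark, in 50 mM Tris pH 8.0 buffer with 300 mM NaCl. Glutathione donor and nickel acceptor beads followed; AlphaScreen signal read after 1 h.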
gsp agonist – gsp mutant agonism. gsp mutant cells, cAMP HTRF, 30 min; control for the full effect not named in the record. Potency, µM (highest dose often 76.9 µM), for inactives: at the top dose activation (cAMP increase), actives largely listed as activators. 0.13% of 340,000 active. AID 624287; active = well fitted activation curve with a large enough effect; inconclusive = small, poorly fitted or top-dose-only effect, or another doubt; inactive = no such curve, though single readings can be large or run the other way; cell line not stated here;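 note: phosphodiesterase inhibitor Ro 20-1724 added with compounds to block cAMP breakdown; potency is the fitted concentration of half-maximal effect; nearly all actives have a fitted effect of over 60% in size; about a fifth of the inactives were tested at one dose only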
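Cells stably selected in G418 were plated at 2000/well, grown 16-24 hr, then given compounds in DMSO with the PDE inhibitor […] (300 uM solution added) for 30 min at 37C; cAMP was read by HTRF.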
ClpP mod – qHTS Assay for Activators of ClpP; purified B. subtilis ClpP, FRET peptide cleavage, 20 min; AID 651965, 2013; 1.9% of 340,000 active; ATP-dependent Clp protease proteolytic subunit (Bacillus subtilis (strain 168)), P80244; Potency, µM (top dose mostly 57.5 µM), for the others: at the highest dose activity change, negative = active; active = well fitted falling curve with a large enough effect; inconclusive = small, poorly fitted or top-dose-only effect; inactive = no such curve, though single readings can be large or run the other way; note: potency is the fitted concentration of half-maximal effect; the source files actives as falling curves though it sought activators and does not explain the sign; nearly all actives have a fitted effect of over 65% in size; many hits overshoot -100%
Target sequence (P80244 whole entry, looked up): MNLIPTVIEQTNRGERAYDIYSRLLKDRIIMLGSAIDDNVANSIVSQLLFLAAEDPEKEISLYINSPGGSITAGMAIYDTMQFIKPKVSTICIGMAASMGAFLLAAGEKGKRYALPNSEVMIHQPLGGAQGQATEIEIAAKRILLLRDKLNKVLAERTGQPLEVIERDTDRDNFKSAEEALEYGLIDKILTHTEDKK
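Buffer: 100 mM Tris/HCl pH8, 100 mM KCl, 0.05% low protease BSA, 2.5% glycerol, 0.01% Tween-20. ClpP 10 microg/mL final; 20 min RT; delta FRET normalized to ADEP and DMSO controls.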
gsp antagonist – gsp mutant antagonism. gsp-mutant cells, cAMP HTRF, 30 min; control for the full effect not named in the record. Potency, µM (highest dose often 76.9 µM), for inactives: at the highest dose activity change, negative = inhibition, hits mostly inhibitors. 0.4% of 340,000 active; active = falling curve of any shape with a large fitted effect; inconclusive = falling curve, mostly with a smaller effect; inactive = flat or rising curve; cell line not stated here;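 note: intracellular cAMP measured with PDE inhibitor Ro 20-1724 present during compound exposure; potency is the fitted concentration of half-maximal effect; % is set by controls: 0 for no effect and ±100 for the full control effect; nearly all actives have a fitted effect of over 65% in size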
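HTRF cAMP measurement after 30 min RT detection following 30 min, 37C compound treatment alongside […] (added as 300 uM solution) in G418-selected cells seeded at 2000/well and grown 16–24 h.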
Sfp PPTase inh – blocks B. subtilis Sfp PPTase activity; Q9F4F7; AID 1490; Potency, µM, for inactives: max response, negative = inhibition, most hits filed as inhibitors; Biochemical Sfp PPTase activity, qHTS; 3.5% of 310,000 active; active = well fitted inhibition curve with a large enough effect; inconclusive = small, poorly fitted or top-dose-only effect, or another doubt; inactive = no such curve, though single readings can be large or run the other way;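 note: the enzyme is Sfp with the accession as filed and its product quenches rhodamine fluorescence; potency is the fitted concentration of half-maximal effect; 0% = enzyme reaction without inhibitor and -100% = no enzyme wells; top concentration of the series not given in the record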
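Step 1, compound plus 15 nM Sfp-PPTase, 15 min, room temperature. Step 2, add rhodamine-CoA (5 uM) and BHQ-2-YbbR (12.5 uM). Step 3, read 525/598 nm fluorescence at 0 and 30 min.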
* hit, by the source's call; ? = inconclusive; nt = no result given; & = joins results of further samples; [ ] = another dose, or the depositor's remark.

SMILES | TRPV1 potentiator | Menin MLL FP FL | CtBP-E1A blk | gsp agonist | ClpP mod | gsp antagonist | Sfp PPTase inh
N#CC1=C(SCC(N)=O)NC(=O)CC1c1cccc2ccccc12 (centres undefined) | nt | nt | 5 | -8%[15.4 µM] | nt | -5% | nt
CN(CC(=O)Nc1ccc(Cl)c(C(F)(F)F)c1)CC(=O)NC1CCCCC1 | -23 | nt | -16 | -3% | -0.5% | -15% | nt
Cc1cc(C)c(NC(=O)c2cccc(NC(=O)c3ccco3)c2)c(C)c1 | 22 | -2.1 | 0 | 1% | -0.4% | -11% | 14%
CC(C)(C)c1ccc(-c2n[nH]c(=S)n2/N=C/c2ccncc2)cc1 | 5 | 13 | 0 | -29% | 1.4% | -3% | -3%
CC(=O)N1c2ccc(S(=O)(=O)N(C)CC(=O)N(C)Cc3ccccc3)cc2CC1C (centres undefined) | 3 | -0.5 | 3 | 23% | 1.1% | 9% | 15%
CS(=O)(=O)NNC(=O)c1cc2cc3ccccc3nc2s1 | 0 | 5.6 | -10 | ? | nt | 5% | 4%
Cc1cc(=O)oc2cc(NC(=O)CN3C(=O)NC(C)(c4ccccc4)C3=O)ccc12 (centres undefined) | -3 | nt | -3 | -3%[15.4 µM] | nt | -8% | nt
CCN(Cc1ccccc1)C(c1ccc(C)cc1)c1nnnn1C(C)(C)CC (centres undefined) | 13 | 2.3 | 11 | -3% | -0.8% | -4% | 11%
O=C(Cn1cc(C(F)(F)F)cc(Cl)c1=O)NC1CCS(=O)(=O)C1 (centres undefined) | 1 | nt | nt | -15% | -3.9% | 9% | nt
COc1ccc(-c2cc(-c3nnc(COC(=O)CC4CCCC4)o3)c3ccccc3n2)cc1OC | 3 | -1.3 | -8 | 11%[15.4 µM] | nt | -10% | 8%
Cc1ccc(S(=O)(=O)NCC(=O)NCC2COc3ccccc3O2)cc1C (centres undefined) | -6 | nt | 5 | -10% | -0.3% | 7% | nt
C=CCNC(=S)Nc1ccc2nsnc2c1 | 2 | 4.1 | -2 | -3%[15.4 µM] | 28µM* | 3% | 10%
Cc1cc(OCC(=O)NCCc2c[nH]c3ccccc23)c2c(C)cc(=O)oc2c1 | 15 | -0.7 | 0 | nt | 0.5% | -8% | 1%
COc1ccc(CN2CCC(C(=O)N(C)CCc3ccc(OC)c(OC)c3)CC2)c(OC)c1 | 6 | -0.1 | 0 | -28% | -1.6% | 10% | -9%
CCCCCCCCCCn1cc(C(C)=O)c(=O)[nH]c1=O | -15 | -0.3 | 8 | -5% | -1.8% | 17% | 9%
CNc1c([N+](=O)[O-])cnn1-c1ccccc1Cl | -2 | 1.0 | 1 | 2% | 0.3% | -2% | 21%
CC(=O)c1c(C)[nH]c(C(=O)COC(=O)C2CC2)c1C | 4 | -7.7 | 4 | -4%[15.4 µM] | nt | -7% | 5%
O=C(Nc1ccncc1)c1ccc(Cl)c(S(=O)(=O)N2CCCC2)c1 | -1 | nt | -12 | -4%[15.4 µM] | nt | -8% | nt
CCN(CC)CCOC(=O)c1cc(Cl)c(N)cc1OC | 3 | -0.1&0.6 | -2 | nt | -3.9% | 1% | 31%&15%
CC(C)Sc1ccc(C(=O)Nc2ccc(F)cc2F)cn1 | -21 | -7.3 | nt | 1%[15.4 µM] | nt | 5% | 22%

Two compounds picked at random from those above:
SMILES | TRPV1 potentiator | Menin MLL FP FL | CtBP-E1A blk | gsp agonist | ClpP mod | gsp antagonist | Sfp PPTase inh
Cc1cc(C)c(NC(=O)c2cccc(NC(=O)c3ccco3)c2)c(C)c1 | 22 | -2.1 | 0 | 1% | -0.4% | -11% | 14%
CC(C)Sc1ccc(C(=O)Nc2ccc(F)cc2F)cn1 | -21 | -7.3 | nt | 1%[15.4 µM] | nt | 5% | 22%

Next section
SMILES | TRPV1 potentiator | Menin MLL FP FL | CtBP-E1A blk | gsp agonist | ClpP mod | gsp antagonist | Sfp PPTase inh
COCC(C)NC(=O)c1oc2c(c1C)C1(CCC2)SCCS1 (centres undefined) | -4 | 0.9 | 0 | -18% | 0.8% | -25% | -22%
O=C1c2ccccc2S(=O)(=O)c2cc(C(=O)N3CCN(c4ncccn4)CC3)ccc21 | nt | nt | 4 | nt | 1.4% | 0% | nt
COC(=O)c1cc(S(=O)(=O)C(C)C)c(S(C)=O)s1 (centres undefined) | 27 | 8.6 | 3 | -5% | nt | 2% | 17%
CCc1nc(SCC(=O)Nc2ccccc2OC)c2c(C)c(C)sc2n1 | -7 | -4.0 | -13 | -2%[15.4 µM] | -2.0% | -17% | -5%
C[C@@H]1CN([C@@H](C)CO)S(=O)(=O)c2ccc(Br)cc2O[C@H]1CN(C)Cc1ccc(-c2ccccc2)cc1 | nt | nt | 23 | -78%[inhibitor] | 0.6% | nt | nt
COc1ccc(OC)c(N(C(=O)c2snc(C(N)=O)c2N)C(C(=O)NCc2ccccc2)c2ccc(O)cc2)c1 (centres undefined) | ? | -0.4 | -30 | -2%[15.4 µM] | nt | -21% | 5%
O=C(c1ccc(F)cc1)N1CCCC(c2ccccc2)C1 (centres undefined) | -2 | -1.4 | 5 | 2%[15.4 µM] | nt | 1% | 18%
Cc1sc(NC(=O)COc2cccc(-n3cnnn3)c2)c(C#N)c1C | -1 | 3.9 | 1 | -1% | -4.9% | -17% | 2%
COc1ccc(NC(=O)CCCN2C(=O)CCC2=O)cc1Cl | 6 | -1.8 | 1 | 1% | ? | 6% | -3%
Cc1ccc(CCNC(=O)CCS(=O)(=O)c2ccc3nc(C)sc3c2)cc1 | 18 | -3.2 | 0 | ? | -0.2% | 0% | 8%
O=C(NCc1cccs1)C1CC(c2ccc(F)cc2)=NO1 (centres undefined) | 18 | 2.5 | 2 | -14%[15.4 µM] | nt | 15% | 10%
CCN(CC)c1cccc(OC2=NS(=O)(=O)c3ccccc32)c1 | 5 | -1.1 | 0 | 3% | -7.4% | -8% | -4%
COc1ccc(N2C(=O)CCC2(C(N)=O)c2ccccc2)cc1 (centres undefined) | 2 | 1.5 | nt | nt | nt | nt | 22%
Cc1cccc(-c2nc(CS(=O)CC(=O)N3CCCCC3)c(C)o2)c1 (centres undefined) | 18 | -1.9 | 0 | -73%[inhibitor] | -6.3% | 6% | 10%
COc1ccc(CCNC(=O)c2ccc(NS(=O)(=O)c3ccc4[nH]c(=O)[nH]c4c3)cc2)cc1 | 0 | nt | 1 | 1% | -0.1% | 14% | nt
CCOc1ccc2nc(NC(=O)c3cnccn3)sc2c1 | -17 | 4.1 | -5 | 11% | -1.2% | -6% | -8%
O=C(NNC(=O)c1ccc2[nH]c(=O)c(=O)[nH]c2c1)c1cccc(Br)c1 | 8 | -8.2 | -2 | ? | ? | 1% | 11%
C/C(=N\NS(=O)(=O)c1ccc(Cl)cc1)c1ccc(O)cc1 | 2 | 0.6 | 9 | 6% | -1.0% | -10% | 13%
CC1CCN(C(=O)COC(=O)c2cc(Cl)cc(Cl)c2N)CC1 | -20 | 1.1 | 16 | 15% | 28µM* | -13% | 1%
Cc1ccc(OCCSCc2nnc(NC(=O)Nc3cccc(Cl)c3)s2)cc1 | 19 | nt | 7 | -4% | 8.2% | -18% | 19%
O/N=C1/CCc2cccc3cccc1c23 | 1 | 0.1 | 3 | -2% | ? | -3% | 14%
Cc1cc(NC(=O)CCCC(=O)NCc2ccccc2)no1 | 9 | -3.9 | ? | -19% | nt | -9% | 4%
C=CCS(=O)(=O)N1CCCC(C(=O)c2cccc(Cl)c2)C1 (centres undefined) | -8 | -1.0 | 15 | 14%[15.4 µM] | nt | 5% | 14%
C=CCN(C(=O)CCC(=O)Nc1cc(C)on1)C(C(=O)NC1CCCC1)c1ccc(C)cc1 (centres undefined) | -10 | 1.5 | -3 | ? | nt | 1% | 13%
O=C(Nc1nccs1)c1nc[nH]c1C(=O)N1CCN(c2ccccc2)CC1 | nt | nt | -71* | 22% | 0.0% | 8% | nt
Cc1ccc2c(c1Br)/C(=N/N1C(=O)c3ccccc3C1=O)C(=O)N2 | 7 | 2.4 | 4 | -55%[inhibitor] | 0.7% | 20% | -4%
CCOC(=O)c1c(NC(=O)CSc2ncn[nH]2)sc(C)c1C | -14 | 1.8 | ? | 1% | -0.9% | ? | -25%
CCOc1ccc(S(=O)(=O)N2CCN(C(=O)C3CSC4(C)CCC(=O)N34)CC2)cc1 (centres undefined) | 7 | nt | 4 | 13% | -2.0% | 9% | nt
CCCN(CCC)S(=O)(=O)c1ccc(C(=O)N2CC3CCC(CC3)C2)cc1 | -11 | 7.0 | 7 | 3%[15.4 µM] | 0.6% | 6% | 11%
CSc1nc2sc3c(c2c(=O)[nH]1)CC(C)(C)OC3 | 13 | 0.7 | 0 | 26% | nt | 4% | 14%
Cc1ccc(-c2oc3ccccc3c(=O)c2O)cc1 | -8 | 9.7 | 12 | 15% | -11% | 1% | 12%
N#Cc1nc(-c2ccc(OCc3ccc(Cl)cc3)cc2)oc1NCCCn1ccnc1 | -9 | -1.1 | -1 | 0% | 25µM* | -2% | -6%
O=C1C=CN(Cc2ccccc2)CC1 | 19 | -0.7 | 0 | nt | -2.6% | -11% | 13%
CSCCC(NC(=O)c1ccc(Cl)cc1Cl)C(=O)NCc1ccncc1 (centres undefined) | -5 | nt | 11 | -6%[15.4 µM] | nt | 2% | nt
O=C(CN(C(=O)CCC(=O)Nc1nccs1)c1ccc2c(c1)OCO2)NCc1ccc(F)cc1 | 14 | 8.4 | 9 | 22% | nt | 11% | -2%
Cc1ccc(S(=O)(=O)Nc2cc3c4c(c2)CC(=O)N4CCC3)cc1 | -4 | nt | 4 | -7% | 0.3% | -10% | nt
CCOC(=O)C1=C(c2ccccc2)OC(N)=C(C#N)C1c1cccnc1 (centres undefined) | -16 | -1.2 | -10 | 14%[15.4 µM] | -9.2% | -22% | 18%
O=[N+]([O-])c1ccc(Oc2ccc(S(=O)(=O)N3CCCCC3)cc2)cc1 | -4 | -0.5 | 16 | -8%[15.4 µM] | 3.6% | 4% | 5%
O=C(CSc1nnc(-c2ccco2)o1)NCC(=O)c1ccccc1 | 17 | -4.0 | 14 | -34% | 0.0% | 1% | -11%
CCC(=O)N1CCc2cc(S(=O)(=O)NCCc3ccc(S(N)(=O)=O)cc3)ccc21 | 8 | -0.1 | 2 | ? | 1.5% | 14% | 11%
O=C(Cc1ccccc1[N+](=O)[O-])N1CCN(c2ccccc2F)CC1 | -26 | 12 | -6 | -8% | 0.9% | 14% | 1%
